Screening results as filed in PubChem.
LASV entry inh: inhibitors of Lassa virus binding or cell entry; Lassa virus pseudotype entry inhibition, cell reporter; control for the full effect not named in the record; Potency, µM (titrated, usually from 37.9 µM), for the others: top-dose activity change, negative = inhibition, most hits filed as inhibitors; hit rate 1.2% among 300,000; AID 540256; active means well fitted inhibition curve with a large enough effect; inconclusive means small, poorly fitted or top-dose-only effect, or effect the other way; inactive means flat fitted curve, though single readings scatter; tested in HEK293 cells; also: % is scaled to controls: 0 for no effect and ±100 for the full control effect; nearly all actives have a fitted effect of over 50% in size; luciferase read-out
MARV entry inh: blocks Marburg virus binding to or entry into cells | Marburg virus pseudotyped entry inhibition, cell reporter; control for the full effect not named in the record; about a third of the inactives were read at about 46 µM | Potency, µM (titrated, usually from 37.8 µM), inactives show top-dose activity change, negative = inhibition, usual class: inhibitors | hit rate 1.8% among 300,000; active = well fitted inhibition curve with a large enough effect; inconclusive = small, poorly fitted or top-dose-only effect, or effect the other way; inactive = flat fitted curve, though single readings scatter; tested in HEK293 cells; about a fifth of its hits are not listed in these tables; also: % is scaled to controls: 0 for no effect and ±100 for the full control effect; luciferase read-out
SARS PLpro yeast: blocks SARS-CoV papain-like protease in a yeast assay | S. cerevisiae expressing SARS-CoV PLpro, growth rescue; control for the full effect not named in the record | Potency, µM (top dose mostly 32.9 µM), for inactives: at the highest dose activity, positive = growth rescue | hit rate 0.19% among 330,000 | AID 485353; also: 0% is about no effect; nearly all actives have a fitted effect of over 55% in size; growth read by luminescence after 48 h
2A StopGo: lowers the luciferase signal of an FMDV 2A StopGo reporter; human cells with a luciferase reporter of 2A StopGo recoding; control for the full effect not named in the record; hit rate 1.2% among 410,000; Potency, µM (doses to about 57.9 µM), inactives show top-dose signal change, negative = less light; active = well fitted falling curve with a large enough effect; inconclusive = small, poorly fitted or top-dose-only effect; inactive = no such curve, though single readings can be large or run the other way; tested in HEK293T cells; also: % is scaled to controls: 0 for no effect and ±100 for the full control effect; nearly all actives have a fitted effect of over 45% in size; luciferase light after 4 h
NS1 function inh: inhibitors of influenza NS1 protein function; S. cerevisiae slowed by influenza A NS1, growth recovery by OD600; Potency, µM (titrated, usually from 46.1 µM), inactives show at the top dose activity, positive = more growth; hit rate 0.4% among 270,000; AID 2326; also: actives are rising curves; nearly all actives have a fitted effect of over 50% in size
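Recovery from NS1-induced slow growth read by OD600 in budding yeast switched to galactose assay medium (pH 6.0, -URA) at 1:100 dilution. Compound 23 nl per well; the matching strain lacking NS1 serves as control.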
Cruzain Triton: blocks cruzain activity in presence of Triton detergent; Potency, µM, without a hit: max response, negative = inhibition, actives largely listed as inhibitors; hit rate 0.43% among 200,000; P25779; purified cruzain, Z-FR-AMC fluorescence, 0.01% Triton; active = well fitted curve in the direction sought with a large enough effect; inconclusive = small, poorly fitted or top-dose-only effect, or another doubt; inactive = no such curve, though single readings can be large; an effect the other way counts as inactive or inconclusive;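 also: plate controls were neutral wells for no effect and buffer without enzyme for full effect; nearly all actives have a fitted effect of over 40% in size; top concentration of the series not given in the record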
Target sequence (P25779 123-467 limits assumed): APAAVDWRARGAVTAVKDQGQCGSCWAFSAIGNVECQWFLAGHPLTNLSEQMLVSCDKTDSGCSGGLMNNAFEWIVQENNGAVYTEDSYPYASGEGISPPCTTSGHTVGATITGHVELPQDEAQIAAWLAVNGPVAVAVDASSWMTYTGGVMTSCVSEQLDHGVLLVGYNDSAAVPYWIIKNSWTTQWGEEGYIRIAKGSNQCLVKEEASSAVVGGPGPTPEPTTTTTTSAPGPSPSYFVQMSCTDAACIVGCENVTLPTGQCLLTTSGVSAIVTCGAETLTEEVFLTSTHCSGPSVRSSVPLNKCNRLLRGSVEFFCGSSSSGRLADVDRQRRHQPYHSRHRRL
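Detergent-containing run (0.01% Triton X-100) in acetate buffer pH 5.5 with 5 mM DTT: enzyme at 1.5 nM final, 15 min compound preincubation at room temperature, then 2 uM Z-FR-AMC substrate. Activity taken as 60 s fluorescence increase at 360/450 nm.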
Cruzain inh noDet: blocks cruzain activity in detergent-free assay | hit rate 2.3% among 200,000 | Potency, µM, for inactives: max response, negative = inhibition, usual class: inhibitors | purified cruzain, Z-FR-AMC fluorescence, no detergent | P25779; active = well fitted curve in the direction sought with a large enough effect; inconclusive = small, poorly fitted or top-dose-only effect, or another doubt; inactive = no such curve, though single readings can be large; an effect the other way counts as inactive or inconclusive;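 also: plate controls were enzyme without inhibitor for no effect and buffer without enzyme for full effect; nearly all actives have a fitted effect of over 40% in size; top concentration of the series not given in the record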
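Detergent-free condition (0.00005% Triton X-100) in acetate buffer pH 5.5 with DTT. 1.5 nM enzyme and compound were pre-mixed 15 min, then 2 uM Z-FR-AMC substrate added; reaction progress from fluorescence change between first and third reads (60 s).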
RE007 growth inh: less growth of the S. pombe RE007 Vpr strain; S. pombe RE007 Vpr strain, BacTiter-Glo ATP luminescence, 24 h; control for the full effect not named in the record; Potency, µM (highest dose often 92.2 µM), inactives show top-dose activity change, negative = less growth; hit rate 0.21% among 360,000; AID 651644; active = well fitted falling curve with a large enough effect; inconclusive = small, poorly fitted or top-dose-only effect; inactive = no such curve, though single readings can be large or run the other way;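 also: % is scaled to controls: 0 for no effect and ±100 for the full control effect; nearly all actives have a fitted effect of over 50% in size; the assay follows cell death caused by Vpr and the record does not say whether a fall means rescue or toxicity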
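Fission yeast strain RE007, carrying one chromosomally integrated HIV-1 vpr copy, was seeded at OD 0.01 in PMG+AL medium with 23 nL pinned compound. After 24 h at 30 °C and 99% humidity, viability was read by BacTiter-Glo luminescence.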
Active calls of the source: *; ? = inconclusive; · = not tested or not shown; & = joins results of further samples; [ ] = another dose, or the depositor's remark. Unless noted, calls follow the shape of the dose curve; as a rule, active means well fitted rising curve with a large enough effect; inconclusive means small, poorly fitted or top-dose-only effect; inactive means no such curve, though single readings can be large or run the other way. Potency is read from the fitted curve at half-maximal effect. Not a hit list (roughly 4.7% active in at least one column).

SMILES	LASV entry inh	MARV entry inh	SARS PLpro yeast	2A StopGo	NS1 function inh	Cruzain Triton	Cruzain inh noDet	RE007 growth inh
O=C(COC(=O)CNC(=O)c1ccc(Cl)cc1Cl)NNC(=O)c1ccccc1F	10%	13%	2%	-4%	·	·	·	-9%
Cc1ccc(S(=O)(=O)NCCC(=O)OCC(=O)N(C)c2ccccc2)cc1	7%[46.1 µM]	8%	-3%	21%	·	·	·	2%
COc1ccc(S(=O)(=O)N(Cc2ccccc2)c2ccccc2C(=O)O)cc1	13%	?	-4%	-15%	?	·	·	-4%
CCOc1ccccc1CN1CCNC(=O)C1CC(=O)N(C)CCC1CCOCC1 (stereo not given)	1%[46.1 µM]	12%[46.1 µM]	10%	2%	3%	·	·	2%
O=CN(c1ccccc1)c1ccc2ccccc2c1	23%	0%[46.1 µM]	2%	36%[activator]	-8%	·	·	5%
Cc1ccc(NC(=O)CSc2nnc(NC(=O)NC3CCCCC3)s2)cc1	-13%[46.1 µM]	·	·	20%	·	0.7%	-10%	·
CCOc1ccc(NC(=O)CN(C)C(=O)c2ccc(C)c(S(=O)(=O)N3CCCCC3)c2)cc1OCC	?	-3%[46.1 µM]	-4%	0%	3%	·	·	7%
CCCNC(=S)Nc1c(C)n(C)n(-c2ccccc2)c1=O	·	27%[46.1 µM]	0%	-10%	-1%	·	·	-4%
CCN1CCN(C(=O)C2CCN(S(=O)(=O)N3CCC4(CC3)OCCO4)CC2)CC1	·	·	3%	-9%	6%	·	·	12%
CCc1ccccc1NC(=O)c1nnn(CC(=O)Nc2cccc(C)c2C)c1N	1%	-23%[46.1 µM]	0%	-4%	-2%	3.9%	-16%	10%
Cc1cc(NC(=O)COC(=O)c2cccc(S(=O)(=O)N3CCOCC3)c2)no1	-1%	3%	-1%	20%	-6%	2.1%	-3%	9%
CC(=O)Nc1ccc(/C(C)=N/NC(=O)c2ccncc2)cc1	7%	28%[46.1 µM]	-3%	-1%	-1%	·	·	7%
COc1ccc(-c2cc(C(=O)N3CCCC(C(F)(F)F)C3)c3ccccc3n2)cc1OC (stereo not given)	?	?	0%	?	·	·	·	-3%
CCCC(=O)c1c[nH]c(C(=O)NCCCN2CCOCC2)c1	2%	19%	0%	0%	3%	7.6%	-1%	23%
CN(CC(=O)Nc1ccc(C#N)cc1)Cc1ccc(Cl)cc1	?	4%	0%	·	-15%	0.1%	11%	12%
CC1(C)CC(=O)C2=C(C1)OC(=O)C2(NC(=O)c1cccs1)C(F)(F)F (stereo not given)	-1%	?	4%	8%	-5%	6.7%	11%	8%
Cc1ccc2cccc(S(=O)(=O)Nc3ccc4c(c3)OCO4)c2n1	2%	-15%	-4%	69%[activator]	3%	-8.6%	-12%	13%
COc1ccc2nc(C)cc(SCC(=O)N/N=C/c3ccco3)c2c1	·	8.9µM*	-3%	-2%	-7%	·	·	-19%
COc1ccc2nc(N3C(=O)/C(=C/c4ccccc4)NC3=S)sc2c1	?	-12%	-4%	2%	17%	-0.6%	13µM*	?
C=CCNC(=O)c1ccccc1CCc1ccccc1	8%[46.1 µM]	0%[46.1 µM]	-1%	-7%	-5%	·	·	11%
CSc1nnc2n(Cc3ccccc3)c(=O)c3c4c(sc3n12)COC(C(C)C)C4 (stereo not given)	·	5%	1%	·	-1%	2.9%	5%	·
COc1ccc(N2CCN(C(=O)/C(C#N)=C/c3ccccc3)CC2)cc1	·	·	-3%	7%	-6%	·	·	4%
Cc1ccc(N2C(=S)N=C(Nc3ccccc3C)C23CCOC(C)(C)C3)cc1 (stereo not given)	-5%	-1%	-8%	?	18%	-0.4%	-9%	12%
O=Cc1c(C(=O)O)n(Cc2ccc(F)cc2Cl)c2ccccc12	·	·	-2%	-13%	3%	·	·	-4%
COc1ccc(NC(=O)CN(C)C(=O)c2ccc(N3CCCC3)c([N+](=O)[O-])c2)cc1	?	-2%[46.1 µM]	-1%	-9%	·	·	·	3%
CCc1cccc(NC(=O)CCn2c(=O)c3cccn3c3cccnc32)c1	-21%[46.1 µM]	·	·	7%	·	0.5%	-4%	·
O=C(CSc1nc2ncccc2[nH]1)Nc1cc(F)ccc1F	·	1%[46.1 µM]	·	-16%	·	-5.7%	-9%	·
CC(C)(C)c1ccc(-c2nc(C#N)c(NCc3ccncc3)o2)cc1	-5%	?	-8%	34%[activator]	-42%	-6.1%	21%	-8%
CC(C)(C)NC(=O)CSc1ncccc1-c1nc2ccccc2[nH]1	-17%[46.1 µM]	9%[46.1 µM]	10%	-5%	11%	·	·	3%
Cc1ccc(C(=O)N/C(=C\c2ccc(F)cc2)C(=O)NCCN2CCOCC2)cc1	11%[46.1 µM]	?	0%	2%	6%	·	·	-1%
CCCCc1ccc(NC(=O)N[C@H](C(=O)O)C(C)C)cc1	20%	0%	-6%	14%	0%	-1.6%	-20%	-2%
Cc1ccccc1NC(=O)c1ccccc1O	23%[14.3 µM]	17%	-36%	-19%	-63%	-2.7%	6%	?
O=C(c1ccc(S(=O)(=O)NCc2ccco2)cc1)N1CCCC1	27%[46.1 µM]	11%[46.1 µM]	0%	-2%	·	·	·	13%
Cc1cc(C)c2cc(CN(CCO)Cc3nnnn3Cc3ccc(F)cc3)c(=O)[nH]c2c1	-13%	-14%	0%	3%	-9%	2.0%	22%	-25%
O=C(CSc1nc2cc(S(=O)(=O)N3CCOCC3)ccc2o1)Nc1c(F)cccc1F	-27%[46.1 µM]	?	-2%	-23%	·	·	·	-1%
Cn1c(=O)c2c(nc(SCC(=O)NCc3ccco3)n2C)n(C)c1=O	12%	7%	0%	·	-2%	-1.2%	-1%	8%
COc1ccc(N(CC(=O)Nc2ccc3c(c2)OCO3)S(=O)(=O)c2ccc(C)cc2)cc1OC	?	?	1%	11%	-6%	·	·	5%
O=C(O)c1cccc(NS(=O)(=O)c2ccc3nnn(O)c3c2)c1	5%	0%	1%	-12%	7%	-0.6%	0%	-7%
Cc1ccc(Nc2sc(C(=O)c3ccccc3)c(N)c2S(=O)(=O)c2ccccc2)cc1Cl	?	-25%[46.1 µM]	·	-23%	·	-5.0%	4µM*	·
Cc1ccc(C)c(SCC(=O)OCC(=O)N2CC(C)OC(C)C2)c1 (stereo not given)	-24%	?	0%	-16%	·	·	·	16%
COc1ccc(C(=O)NC(=O)N2CCCCC2)cc1	3%	16%	0%	26%	2%	-1.6%	1%	2%
COC(=O)c1sccc1NC(=O)Nc1cccc(C)c1C	19%[46.1 µM]	15%[46.1 µM]	1%	27%	-9%	·	·	-10%
CC(C)C(=O)N1CCN(c2nc(-c3ccc(Cl)cc3)cs2)CC1	·	·	0%	-13%	-1%	·	·	?
Cc1ccc(NC(=O)C(=O)NCC(c2cccnc2)N2CCc3ccccc3C2)cc1 (stereo not given)	9%[46.1 µM]	·	·	?	·	-2.8%	-7%	·
O=C1CC(SC(=NCc2ccc3c(c2)OCO3)Nc2ccccc2)C(=O)N1c1ccccc1 (stereo not given)	0%	-8%	12%	0%	11%	1.4%	?	-8%
C#CCn1c(-c2ccccc2)ccc(C#N)c1=O	21%[46.1 µM]	?	0%	-19%	-9%	·	·	1%
CCc1c(C)nc(SCc2nc(-c3ccccc3)no2)[nH]c1=O	2%[46.1 µM]	·	·	-14%	·	-0.2%	-6%	·
Cn1c(=O)n(CC(=O)NCc2cccnc2)c2ccccc21	-12%	20%&20%	-3%	20%	10%	2.6%	0%	-11%
CC(=O)c1c(O)cc(O)cc1CC(=O)O	·	·	0%	-16%	3%	·	·	5%
O=c1c([N+](=O)[O-])cccn1Cc1ccccc1Cl	?	?	0%	-10%	·	·	·	4%
Cc1ccc(Nc2nnc(SCC(=O)Nc3cccc(S(=O)(=O)N4CCCCC4)c3)s2)cc1	?	?	?	-29%	-18%	-4.6%	?	-1%
COc1ccc2[nH]cc(C(=O)N3CCCCC3)c(=O)c2c1	0%	-2%	3%	-1%	1%	-1.4%	-5%	-4%
Cc1nc2ccccn2c1C(=O)NCCCN1CCOCC1	12%	12%	1%	-14%	-4%	4.9%	-13%	-7%
CC1CCN(C(=O)Cn2cnc3c(cnn3C(C)(C)C)c2=O)CC1	?	?	1%	75%[activator]	·	·	·	14%
COc1ccc(NC(=O)CN(C)S(=O)(=O)c2ccc3c(c2)OCCO3)c2ncccc12	?	-30%	-12%	?	-7%	-3.2%	-7%	16%
CSc1n[nH]c(NCc2ccccc2)n1	-1%	9%	-1%	3%	1%	3.9%	1%	-6%
CC(C)=NNc1nc(-c2ccccc2)cs1	5%	4%	-37%	40%[activator]	?	-0.7%	-9%	107%
Cc1ccc(C(=O)N2CCCC(Nc3ccc(C(C)C)cc3)C2)cn1 (stereo not given)	·	·	0%	-23%	9%	·	·	-13%
CC(C)CN(C(=O)c1cccc(S(=O)(=O)N2CCN(Cc3ccccc3)CC2)c1)C1CCS(=O)(=O)C1 (stereo not given)	16%	?	2%	-22%	·	·	·	7%
CC1CCCC(C)N1CCCNC(=O)Cn1cc2c(n1)CCCC2 (stereo not given)	·	0%	3%	0%	-3%	0.9%	2%	9%
Later entries.
SMILES	LASV entry inh	MARV entry inh	SARS PLpro yeast	2A StopGo	NS1 function inh	Cruzain Triton	Cruzain inh noDet	RE007 growth inh
Nc1cc(=O)[nH]c2ncnn12	27%[46.1 µM]	?	·	-10%	·	·	·	15%
Cc1cccc(/C=C/C(=O)c2ccc(NC3=NCCCS3)cc2)c1	2%	?	-9%	?	-29%	-10%	-11%	-13%
Nc1cc(S(=O)(=O)C(F)(F)F)ccc1C(=O)O	-7%	-6%	1%	1%	8%	3.6%	-4%	10%
CC(=O)OCC(=O)Nc1ccc(N=Nc2ccccc2)cc1	?	-28%	-119%	34%[activator]	-13%	-12%	-11%	-8%
COc1ccc(OCC(=O)Nc2cc(-c3cccc(Cl)c3)nn2-c2ccccc2)cc1	14%[46.1 µM]	·	·	7%	·	0.9%	-4%	·
COc1cc(NC(=O)CN2C(=O)CSc3ccc(S(=O)(=O)N4CCCC4)cc32)cc(OC)c1	·	·	-3%	-16%	1%	·	·	-21%
